HTT prom inh = inhibitors of huntingtin promoter activity | HEK293 HTT promoter firefly luciferase reporter (activity 0% = vehicle and -100% = no light), 24 h | Potency, µM (doses to about 57.5 µM), for the others: at the top dose activity change, negative = inhibition, hits mostly inhibitors | 48,000 compounds, 0.93% hits; active = well fitted inhibition curve with a large enough effect; inconclusive = small, poorly fitted or top-dose-only effect; inactive = no such curve, though single readings can be large or run the other way; note: nearly all actives have a fitted effect of over 50% in size
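Firefly luciferase signal from promoter-reporter HEK293 cells was scaled between vehicle (0%) and zero RLU (-100%). Compounds were tested at final concentrations of up to 57.5 uM over 24 h at 37 degrees C. PTC124 at 50 uM final served as control inhibitor.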
PMP22 txn = modulators of PMP22 gene transcription in S16 Schwann cells. AID 1508649. 43,000 compounds, 2% hits. Potency, µM (doses to about 57.5 µM), for the others: top-dose activity change, negative = inhibition, hits mostly inhibitors. S16 Pmp22-F2sN Schwann cells (luciferase reporters placed in the Pmp22 gene), FLuc/NLuc coincidence luminescence, 24 h; active = clear falling dose curves in both reporters; inconclusive = both reporters move, but less clearly or upward; inactive = either reporter flat; the % is the NLuc reporter signal; note: % is set by controls: 0 for no effect and ±100 for the full control effect; some results filed as inactive show a strong effect at the top dose
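S16 Schwann cells carrying FLuc/NLuc coincidence reporter in the Pmp22 3' UTR treated with compound 24 h at 37C; FLuc then NLuc luminescence read sequentially by dual-luciferase reagents.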
An asterisk follows results filed as active; u = inconclusive; x = no result given; [ ] = dose if it differs, or a comment. Potency is the fitted concentration of half-maximal effect.

The line under a structure holds: HTT prom inh | PMP22 txn
- COc1ccc(NC(=O)NC(C)c2c(-n3cccc3)sc3c2CCN(C)C3)c(OC)c1 (centres undefined)
    -18% | 2%
- CCOC(=O)c1cc(NC(=O)c2ccc(OC)cc2)c(=O)n2c1oc1ccc(Cl)cc12
    -2% | -10%
- CCc1ccc(Nc2sc(C(=O)c3ccccc3)c(N)c2S(C)(=O)=O)cc1
    -21% | -21%
- O=C(C1CCCCC1)N(Cc1cccnc1)c1nc2ccc(F)cc2s1
    u | u
- CC(=O)c1ccc(NC(=O)c2cc3sccc3n2Cc2ccc(Cl)cc2)cc1
    -13% | u
- Cc1cc2oc(C(=O)Nc3c(C(=O)Nc4ccccc4)oc4ccccc34)cc(=O)c2cc1C
    -21% | -9%
- COc1ccc2c(Sc3ccccc3)c(C(=O)NCc3cccc(OC)c3OC)[nH]c2c1
    -2% | -6%
- COc1ccc(NS(=O)(=O)c2cc3[nH]c(=O)c(=O)[nH]c3cc2C)cc1OC
    -20% | -3%
- CCOC(=O)Cc1ccc(NC(=O)N(Cc2ccc(OC)cc2)C2CCN(C(C)=O)CC2)cc1
    -13% | -5%
- CCCCN(C)C(=O)c1ccc2c(=O)n3nc(Nc4cc(C)ccc4C)sc3nc2c1
    u | -12%
- CCC1CCc2nc3sc(C(=O)Nc4cccc(F)c4)c(N)c3cc2C1 (centres undefined)
    8% | u
- CCOc1cccc2sc(N3CCN(C(=O)C(C)(C)C)CC3)nc12
    21% | -2%
- O=C(O)C(=O)Nc1cccc(-c2nn[nH]n2)c1
    -4% | x
- CCCn1c(=O)c2sccc2n2c(CCCC(=O)Nc3ccc(Oc4ccccc4)cc3)nnc12
    u | -7%
- COc1cccc(CNC(=O)C2CCCN(S(=O)(=O)c3ccc4c(ccn4C)c3)C2)c1 (centres undefined)
    -20% | 2%
- CCCCc1ccc(NC(=O)Cn2cnc3c(oc4ccccc43)c2=O)cc1
    6% | 0%
- CC1CN(C(=O)N2CCC(C(=O)NCc3cccs3)CC2)c2cc(Cl)ccc2O1 (centres undefined)
    -23% | -15%
- Cc1ccccc1C(=O)NCc1ccc2c(c1)CCN2C(=O)c1ccccc1
    u | 4%
- COc1cccc(CNC(=O)Cn2nc(-c3ccc(Cl)cc3)ccc2=O)c1
    -2% | -20%
- O=c1oc2ccc(Cl)cc2cc1-c1cn2c(n1)sc1ccccc12
    -28% | 19%
- O=C(Cn1ncc2ccsc2c1=O)N1CCN(c2ccc(Cl)cc2)CC1
    u | u
- COc1ccc(CNC(=O)CSc2c3c(nc4ccc(Cl)cc24)CCCC3)cc1
    -15% | u
- O=C(CN(c1cccc(C(F)(F)F)c1)S(=O)(=O)c1ccccc1)Nc1cccc(Cl)c1
    28µM* | u
- CCC(CC)C(=O)Nc1ccc(C(=O)OCc2cc(=O)n3nc(C4CC4)sc3n2)cc1
    -5% | -2%
- COc1cccc(NC(=O)CSc2c(C)cnc3c2c(=O)n(C)c(=O)n3C)c1
    -18% | u
- CCOc1ccccc1NC(=O)Cn1c(=O)n(-c2cccc(C)c2)c(=O)c2c1c1cc(OC)ccc1n2C
    -6% | u
- COc1cc2c(cc1OC)[C@@H]1CC(=O)[C@@H](CC(C)C)CN1CC2
    7% | x
- CC(C)OCCCNC(=O)Cn1c(-c2cccs2)cc2cc(F)ccc21
    u | -22%
- COc1ccc(CN(C(=O)c2ccc(OCC(C)C)cc2)C2CCS(=O)(=O)C2)cc1 (centres undefined)
    -5% | 10%
- CCCCOC(=O)c1ccc(NC(=O)c2cc3c(=O)n4cccc(C)c4nc3n2C)cc1
    1% | 15%
- CN(Cc1ccc(C(C)(C)C)cc1)Cc1cccc2ccccc12
    2% | x
- CCc1nn2c(=O)c(S(=O)(=O)Nc3cccc(F)c3)c(C)nc2s1
    -28% | u
- CC(C)Cc1nn2c(=O)cc(COC(=O)c3cccc(NC(=O)c4cccs4)c3)nc2s1
    -11% | -33%
- COc1cc2c(cc1OC)C(COc1ccccc1OC)N(C(=O)c1ccccc1OC)CC2 (centres undefined)
    -25% | -20%
- Cc1[nH]c2ccc(C(=O)NCCCN3CCCCC3)cc2c1C
    -8% | -17%
- CCOc1ccc(S(=O)(=O)N(CC(=O)NCCc2ccc(OC)c(OC)c2)c2ccccc2)cc1
    u | u
- CC(C)Cn1c(=O)c2ccccc2n2c(CCC(=O)N3CCN(c4ccccc4F)CC3)nnc12
    -2% | -13%
- COc1cccc(-c2nnc3sc(CN4CCCCC4)cn23)c1
    0% | u
- Cc1nn(-c2ccccc2)c(OC(=O)c2ccc(Br)cc2)c1S(=O)(=O)c1ccccc1
    -15% | 5%
- Cc1oc2ncnc(N3CCCCC3)c2c1C(=O)NCC1CCN(Cc2ccccc2F)CC1
    11% | -5%
- CC(C)NC(=O)c1ccccc1NC(=O)c1nsc2ccccc12
    14% | u
- Cc1cc(C)c(NC(=O)C(C)n2nnc3sc(-c4ccccc4)cc3c2=O)c(C)c1 (centres undefined)
    0% | -3%
- Cc1ccc(C)c(S(=O)(=O)c2nnn3c2nc(Nc2ccc(C)c(C)c2)c2sccc23)c1
    -3% | -14%
- Cc1ccc(NC(=O)CSc2nc3ccccc3n2CC(=O)N(C)C2CCCCC2)cc1C
    u | u
- CCOC(=O)N1CCc2c(sc3c2c(=O)n(Cc2ccccc2)c(=O)n3CC(=O)Nc2ccc(C)cc2C)C1
    -9% | -3%

Single records (already shown). Order of values: HTT prom inh | PMP22 txn
`CC(C)NC(=O)c1ccccc1NC(=O)c1nsc2ccccc12` as listed: 14% | u
`Cc1nn(-c2ccccc2)c(OC(=O)c2ccc(Br)cc2)c1S(=O)(=O)c1ccccc1` as listed: -15% | 5%
`Cc1oc2ncnc(N3CCCCC3)c2c1C(=O)NCC1CCN(Cc2ccccc2F)CC1` as listed: 11% | -5%
`Cc1ccc(NC(=O)CSc2nc3ccccc3n2CC(=O)N(C)C2CCCCC2)cc1C` as listed: u | u
`CCc1nn2c(=O)c(S(=O)(=O)Nc3cccc(F)c3)c(C)nc2s1` as listed: -28% | u

Fetched by compound from the list above (5):
The line under a structure holds: HTT prom inh | PMP22 txn
- Cc1[nH]c2ccc(C(=O)NCCCN3CCCCC3)cc2c1C
    -8% | -17%
- CCOC(=O)N1CCc2c(sc3c2c(=O)n(Cc2ccccc2)c(=O)n3CC(=O)Nc2ccc(C)cc2C)C1
    -9% | -3%
- COc1cccc(-c2nnc3sc(CN4CCCCC4)cn23)c1
    0% | u
- COc1cc2c(cc1OC)C(COc1ccccc1OC)N(C(=O)c1ccccc1OC)CC2 (centres undefined)
    -25% | -20%
- Cc1oc2ncnc(N3CCCCC3)c2c1C(=O)NCC1CCN(Cc2ccccc2F)CC1
    11% | -5%

Next results follow:
The line under a structure holds: HTT prom inh | PMP22 txn
- CCCCc1nn2c(=O)cc(COC(=O)COc3ccc(C)cc3)nc2s1
    -4% | 8%
- Cc1cccc(N2C(=O)CSC23C(=O)N(CC(=O)NCCc2ccccc2)c2ccccc23)c1 (centres undefined)
    -10% | -7%
- Cc1ccc(C(=O)c2oc3ccccc3c2NC(=O)COc2ccc(Cl)c(C)c2)cc1
    2% | 7%
- COc1ccc(NCc2cccn2-c2nnc(N3CCOCC3)s2)cc1OC
    u | -25%
- CCc1ccccc1-n1c(C)nc2cc(C(=O)NCCc3ccc(Cl)cc3)ccc21
    -24% | -15%
- CCOc1ccc(CNC(=O)Cn2ccc3cc(S(=O)(=O)N4CCCCCC4)ccc32)cc1
    u | u
- O=C(c1ccc(Br)s1)N(Cc1cccnc1)c1nc2ccc(F)cc2s1
    -10% | -12%
- O=C(COc1ccccc1Cl)Nc1nnc(S(=O)(=O)N2CCCCCC2)s1
    -18% | -1%
- Cc1cccc(C(=O)Nc2ccc3oc(-c4cccc5c(Br)cccc45)nc3c2)c1
    -11% | 8%
- CCc1cccc(C)c1NC(=O)Cn1nc(C)n2cccc2c1=O
    -3% | -4%
- CCOc1ccc(-c2c(C)nn3c(C)c(C(=O)Nc4ccccc4C(=O)OC)cnc23)cc1OCC
    -21% | -18%
- CCOC(=O)c1ccn(-c2nc(-c3cccc(OC)c3)cc(C(F)(F)F)n2)n1
    -21% | u
- COc1ccc(NC(=O)C2CCCN(S(=O)(=O)c3ccc4[nH]c(=O)ccc4c3)C2)cc1Cl (centres undefined)
    u | -39%
- Cc1cc(C)cc(NC(=O)C2CCC(CNS(=O)(=O)c3ccc4c(c3)C(C)(C)C(=O)N4C)CC2)c1 (centres undefined)
    u | u
- CC(=O)c1ccc(NC(=O)CSc2nc(=O)n(Cc3ccccn3)c3c2CCC3)cc1
    0% | 9%
- COc1ccc(C2CC(=O)N(Cc3ccccc3)c3c2c(C)nn3-c2nc(C)cc(C)n2)c(OC)c1 (centres undefined)
    -14% | -29%
- Cc1ccc(Nc2c(-c3cccc(Cl)c3)nc3cccc(C)n23)cc1
    -25% | -13%
- Cc1nn(Cc2ccccc2)c(C)c1NC(=O)c1cc(C(C)C)on1
    u | -13%
- Cc1cc(-n2c(C)nc3ccccc3c2=O)ccc1NC(=O)C(F)(F)F
    0% | -9%
- Cc1ccc2cccc(NC(=O)c3ccc(-c4cccc(Cl)c4)o3)c2n1
    -14% | 3%
- O=C(NCCc1ccccc1)C1CCN(Cc2cc3ccccc3n2Cc2ccccc2)CC1
    -9% | u
- CC(C)(C)OC(=O)N1CCC(c2c(C(=O)NCCN3CCOCC3)cnn2-c2cccc(Cl)c2)CC1
    -5% | -4%
- CCn1cc(C(=O)NCCCOC)c(=O)c2cc(S(=O)(=O)N3CCCC3)ccc21
    -3% | -36%
- Cc1ccc(-n2c(=O)c3ccc(C(=O)NCc4ccco4)cc3n(CC(=O)Nc3ccccc3C(F)(F)F)c2=O)cc1
    u | -9%
- COC(=O)c1cc(OC)c(OC)cc1NC(=O)c1ccc2c(c1)CCN2S(=O)(=O)c1ccccc1
    -4% | -4%
- CCC(C)NC(=O)c1c(C)oc2nc(C)nc(N3CCOCC3)c12 (centres undefined)
    3% | 7%
- Cc1cc(C)c(S(=O)(=O)NCC2CCC(C(=O)NCCc3ccccc3)CC2)c(C)c1 (centres undefined)
    u | -20%
- CCc1cccc(NC(=O)CCS(=O)(=O)c2cc3c4c(c2)CCN4C(=O)CC3)c1
    -11% | -28%
- CC(=O)N1CCc2cc(Br)cc(S(=O)(=O)CCC(=O)N3CCN(c4ccccc4Cl)CC3)c21
    -2% | u
- CC(C)C(=O)Oc1ccc(CO)cc1[C@H](CCN(C(C)C)C(C)C)c1ccccc1
    -5% | x
- COc1ccc(-n2cc(-c3ccccc3)c3c(NC4CCCCC4)ncnc32)cc1
    u | u
- CC(C)c1nc2ccc(C(=O)NCCCN3CCN(c4ccccc4F)CC3)cc2o1
    -27% | -19%
- CC1CCC(Nc2ncnc3onc(-c4ccc(Cl)cc4)c23)CC1 (centres undefined)
    u | -10%
- COc1ccc(C(C)=O)cc1CSc1nc(NCc2ccccc2)c2ccccc2n1
    u | u
- CCN(C(=O)C1CCN(c2ncnc3c2nc2n3CCCCC2)CC1)c1cccc(Cl)c1
    u | u
- COc1ccc(NC(=O)CSc2nnc(-c3nonc3NC(C)=O)n2C)cc1Cl
    -15% | -3%
- Cc1ccc(C2c3[nH]c4ccccc4c3CCN2C(=O)CSc2ccccc2)cc1 (centres undefined)
    -30% | u
- COC(=O)c1ccc2c(=O)n(CCc3ccc(S(N)(=O)=O)cc3)c(SCC(=O)C(C)(C)C)nc2c1
    -5% | u
- COC(=O)c1ccc(NC(=O)CN(C)S(=O)(=O)c2ccc3c(c2)CCCC(=O)N3)cc1
    u | u
- Cc1nc([N+](=O)[O-])cn1-c1ccc([N+](=O)[O-])cc1
    -2% | x
- O=C(C1CC1)N1CCN(c2nc3c(F)cc(F)cc3s2)CC1
    38%[activator] | 0%
- COc1ccccc1CNC(=O)CCNS(=O)(=O)c1ccc2c(c1)CCCC(=O)N2
    -12% | -14%
- COC(=O)c1c(-c2ccc(Cl)cc2)noc1N1CCN(c2cc(C)ccc2C)CC1
    -3% | 5.6µM*
- CCOC(=O)c1cn(CC(=O)Nc2ccc(OC)cc2OC)nn1
    -14% | 7%
- CCn1c(SCC(=O)Nc2ccc(C)cc2Br)nnc1-c1nonc1NC(C)=O
    -27% | u
- CCOc1ccccc1NC(=O)Cn1c(=O)ccc2cc(S(=O)(=O)N3CCCC3)ccc21
    u | u
- Cc1ccc(NC(=O)C2CCN(c3ncccn3)CC2)cc1F
    -3% | 6%
- CCCN(Cc1cc2cccc(C)c2[nH]c1=O)C(=O)c1cccc(Cl)c1
    -16% | -32%
- Cc1ccc(NC(=O)C2CCCN(S(=O)(=O)c3cn(C(C)C)cn3)C2)c(C)c1 (centres undefined)
    -17% | -33%
- CO[C@H]1C=CO[C@@]2(C)Oc3c(C)c(O)c4c(O)c(c(/C=N/N5CCN(C)CC5)c(O)c4c3C2=O)NC(=O)/C(C)=C\C=C[C@H](C)[C@H](O)[C@@H](C)[C@@H](O)[C@@H](C)[C@H](OC(C)=O)[C@@H]1C
    -9% | x
- COc1cc(NC(=O)CSc2nc3ccccc3nc2Cc2ccccc2OC)cc(OC)c1
    -3% | u
